LANA-H2A inh = blocks KSHV LANA binding to histone H2A/H2B; Q9QR71; cell-free LANA-H2A/H2B peptide, fluorescence polarization; inhibition, % (test concentration not listed); 320,000 compounds, 0.6% hits; in the data active = inhibition mostly above about 10%, no sharp cut-off; inactive = mostly below about 6.7%;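 also: stock transfer was 7.5 nL into about 10 µL; 0% = median of vehicle wells and 100% = median of positive control wells; one replicate is shown; the record names a cut of 25% in any replicate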
Vif A3G = inhibitors of Vif binding to APOBEC3G peptide, primary screen, biochemical, TR-FRET, GST-Vif 1-94, biotin-A3G peptide, dose response retest (AID 1117319). one-dose inhibition, %; IC50 in µM for titrated hits. 260,000 compounds, 0.57% hits. TR-FRET GST-Vif / biotin-A3G peptide binding; higher % means a stronger effect; test concentration not given here; strong numbers were not always called active;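 active = above the screen mean plus three standard deviations and confirmed in dose response; inconclusive = results disagree or hit not tested in dose response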;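 also: Vif residues 1-94 fused to GST binding biotinylated APOBEC3G peptide 110-148; 0% = full assay without inhibitor and 100% = GST in place of GST-Vif; retest series ran down from 100 µM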
A1 inh = inhibitors of the anti-apoptotic protein A1, read as caspase activation; caspase activation, % (test concentration not listed); 330,000 compounds, 0.066% hits; AID 2462; MEF A1-2A-BIM cells, Caspase-Glo 3/7 luminescence, 3 h; percent of clofoctol response, vehicle zero;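 active = over half of replicate activation scores above 10%, or exactly half above 10 with the replicate mean above 10; inconclusive = replicate mean below 10 yet half the replicates above 10; inactive = over half of replicates below 10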;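 also: wells of about 30 µL received 50 nL stock; many hits fall short of the cut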
Beta2AR agonist = activates human beta-2 adrenergic receptor causing internalization. Am2.2-beta2AR cells, FAP receptor internalization, flow cytometry; reference of the scale not given here. response, % (concentration not given with the values). AID 504454. 340,000 compounds, 0.43% hits. P07550;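 active = response above a set limit, near 3 SD of response in nonfluorescent compounds, cut at about 42% in these data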;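 also: stock transfer was 100 nL into about 11 µL; a reference agonist was the positive control; negative values mostly stem from fluorescent compounds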
Target sequence (P07550 whole entry, looked up): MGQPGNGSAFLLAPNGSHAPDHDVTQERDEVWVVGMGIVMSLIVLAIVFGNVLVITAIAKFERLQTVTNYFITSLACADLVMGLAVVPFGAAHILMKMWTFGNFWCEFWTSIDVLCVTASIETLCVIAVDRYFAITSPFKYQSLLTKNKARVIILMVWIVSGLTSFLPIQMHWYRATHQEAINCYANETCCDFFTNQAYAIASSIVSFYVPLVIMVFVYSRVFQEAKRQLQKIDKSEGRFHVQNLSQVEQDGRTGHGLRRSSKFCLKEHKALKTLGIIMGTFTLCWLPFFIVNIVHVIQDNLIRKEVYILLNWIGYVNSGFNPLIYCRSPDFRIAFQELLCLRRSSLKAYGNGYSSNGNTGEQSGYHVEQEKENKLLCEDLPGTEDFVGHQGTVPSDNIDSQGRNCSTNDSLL
HNF4A DNA FP = change in binding of human HNF4 alpha to DNA; P41235; HNF4a-FITC DNA binding, fluorescence polarization, 1 h; activity change, % at 10 µM; 360,000 compounds, 0.3% hits; AID 1224865; in the data active = activity change above about 30%, passing the limit was not always enough;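 also: controls were the assay level and a saturating level of protein; the project sought stronger binding though the title names inhibitors; some compounds called inactive have numbers as strong as hits; positive values seem to mean higher polarization but the record does not say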
E coli growth = blocks Escherichia coli growth; 330,000 compounds, 0.21% hits; AID 1053175; OD600 absorbance (test concentration not listed); OD600, 23 h; stronger effect = lower value;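 active = OD600 absorbance below the run mean of sample wells minus 3.6 SD, in any replicate, cut at about 0.56 in these data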;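 also: stock transfer was 300 nL into about 60 µL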
UCH37 DUB inh = human UCH37 deubiquitinating enzyme inhibition; AID 588478; inhibition, % (no concentration beside the values); Q9Y5K5; 330,000 compounds, 0.33% hits; purified proteasome/UCH37, Ub-AMC cleavage fluorescence;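 active = mean of two replicates above 20%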;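 also: 0% = compound-free wells with enzyme and 100% = wells lacking proteasome; stock transfer was 100 nL into about 20 µL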
Target sequence (Q9Y5K5 whole entry, looked up): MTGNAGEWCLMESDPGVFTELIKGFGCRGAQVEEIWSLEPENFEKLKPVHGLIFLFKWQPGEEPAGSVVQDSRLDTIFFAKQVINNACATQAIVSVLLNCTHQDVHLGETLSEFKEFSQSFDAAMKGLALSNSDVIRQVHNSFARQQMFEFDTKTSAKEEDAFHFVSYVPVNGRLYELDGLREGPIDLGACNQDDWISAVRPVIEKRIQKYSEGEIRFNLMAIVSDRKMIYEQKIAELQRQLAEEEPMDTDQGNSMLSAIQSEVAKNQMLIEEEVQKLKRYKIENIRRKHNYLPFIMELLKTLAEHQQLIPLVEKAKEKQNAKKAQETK
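assay system = human UCH37 enzyme supplied as purified proteasome complex | amount = proteasome at 0.15 nM in the dispensed enzyme solution | schedule = 30 min compound-proteasome preincubation then 25 min substrate reaction, room temperature | measured by = fluorescence, ex 355 nm, em 460 nm | benchmarks = no-proteasome wells (full inhibition) and compound-free wells (no inhibition)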
Numbers without * were called inactive; ? = inconclusive; / = not tested or not shown; & = joins results of further samples.

SMILES	LANA-H2A inh	Vif A3G	A1 inh	Beta2AR agonist	HNF4A DNA FP	E coli growth	UCH37 DUB inh
COC(=O)C1=C(N)c2c(F)cccc2C1(C#N)c1ccc(F)cc1 (stereo not drawn)	4.8	-3.6%	0.0	1.1	0.5	0.7	-9.4
COc1ccc(NS(=O)(=O)c2cccs2)c(OC)c1	-2.9	?	0.8	-0.5	-1.3	0.785	-0.4
COc1ccc([N+](=O)[O-])cc1NC(=O)C1CCCO1 (stereo not drawn)	0.9	-6.7%	?	3.8	2.7	0.669	7.5
CCC(=O)N1CCN(c2ccc(NC(=S)NC(=O)COc3ccccc3)cc2)CC1	1.8	2.6%	-1.0	0.0	-0.9	0.66	1.4
O=C(CSc1nnc(-c2cc3ccccc3cc2O)n1Cc1ccco1)c1ccc(F)cc1	5.0	4.6%	0.3	3.6	-2.1	0.693	1.2
O=S(=O)(Nc1cccnc1)c1cccs1	4.0	-2.7%	0.5	1.7	-0.8	0.731	-1.0
O=C(COC(=O)CCc1c[nH]c2ccccc12)Nc1ccccc1	/	1.5%	/	0.7	-0.4	0.654	0.7
O=C(Nc1cccc(S(=O)(=O)NC2=NCCCCC2)c1)c1ccc(Cl)cc1	/	3.5%	/	-1.2	1.4	0.71	0.9
CC(=O)c1cccc(N2C(=O)Nc3ccccc3N2O)c1	-3.4	-3.6%	-0.1	-3.6	0.7	0.699	3.3
CC(OC(=O)c1ccc(Cl)nc1)C(=O)Nc1ccc2c(c1)OCO2 (stereo not drawn)	2.4	/	1.4	-3.9	-4.3	0.695	5.0
CCCSC1C(C)=C(C)C(=O)N1Cc1ccccc1 (stereo not drawn)	-4.8	-6.7%	0.0	3.8	-4.9	0.674	4.3
CCc1ccccc1NC(=S)N(CCN(C)C)C(C)c1cccnc1 (stereo not drawn)	-2.4	-6.7%	0.5	11.0	2.2	0.679	-0.6
Cc1ccccc1/C(N)=N/OC(=O)c1ccc(F)cc1	-3.8	?	-7.1	8.1	-3.9	0.566	2.8
COCc1cc(C)nc(N)c1C#N	5.5	8.3%	0.6	12.0	-3.3	0.711	-41.0
CCOc1cccc(C(=O)NNC(=O)C2C3C=CC(C3)C2C(=O)O)c1 (stereo not drawn)	5.5	1.8%	0.4	-5.4	-1.4	0.664	-0.9
Cc1ccc(CNC(=O)c2cn(C)c(=O)c3c2c2ccccc2n3C)o1	-1.1	1.8%	0.3	3.4	-1.2	0.661	-46.6
COc1ccc(C)cc1NC(=O)c1c([N+](=O)[O-])cnn1C	0.2	/	-0.4	-1.7	-0.5	0.66	2.1
CCN(Cc1cc2ccccc2[nH]c1=O)S(=O)(=O)c1ccc(OC)cc1	-2.3	0.9%	0.6	-14.3	0.3	0.701	-5.3
CC(C)NC(=S)NN=C1CCC(c2ccccc2)CC1 (stereo not drawn)	0.7	2.0%	0.8	3.1	-1.7	0.696	0.5
CCc1ccc(Nc2nnc(SCC(=O)Nc3cccc(S(=O)(=O)NC4=NCCCCC4)c3)s2)cc1	4.5	?	1.1	13.1	-1.7	0.75	7.3
O=C(COc1ccccc1)Nc1ccccc1Cl	4.9	26.1%	-3.1	-0.7	-1.1	0.691	1.6
O=C(Nc1ccc(Cl)cc1)C(c1ccccc1)N(CCO)CCO (stereo not drawn)	-4.1	-1.4%	-3.6	-7.0	-2.2	0.709	3.0
N#C/C(=C/c1ccc2c(c1)OCO2)C(=O)NCCc1c[nH]c2ccccc12	2.4	1.5%	1.0	8.2	1.6	0.703	5.0
CC1CCN(S(=O)(=O)c2ccc(C(=O)OCc3ccc4c(c3)OCO4)cc2)CC1	-4.8	8.5%	0.3	1.0	-3.0	0.773	2.8
COc1cc(NS(=O)(=O)c2ccc(NC(=O)COc3ccc(C)cc3)cc2)nc(OC)n1	-2.1	0.9%	0.6	5.2	-2.5	0.671	5.1
O=C(NCc1cccc(C(F)(F)F)c1)C1CCCN(c2cnccn2)C1 (stereo not drawn)	-8.3	/	-0.3	0.7	-2.4	0.68	-15.9
CCN(CCS(=O)(=O)c1ccc(Cl)cc1)C(=O)Nc1ccc(Cl)cc1	-5.1	/	0.2	-10.5	0.9	0.661	0.8
Cn1cccc1/C=C1\CCc2ccccc2C1=O	-4.6	/	-8.4	-6.5	13.4	0.647	3.5
O=C1CC(c2cccc(Cl)c2)c2cc3c(cc2N1)CCC3 (stereo not drawn)	-5.6	-2.3%	0.4	-2.1	-4.7	0.665	3.3
CC(C)c1ccc(/C=C/C(=O)NCCCc2ccccc2)cc1	-5.3	-3.6%	1.0	0.6	0.2	0.625	2.2
O=C(O)c1ccccc1C1=Nc2ccc(O)cc2Oc2cc(O)ccc21	16.9*	5.0%&5.8%	1.6	6.4	-89.2	0.719	11.7
CC(=O)c1ccc(C(=O)N2CCCC(CO)(Cc3ccccc3C)C2)s1 (stereo not drawn)	/	3.4%	/	-5.9	0.0	0.69	1.2
CCCCNC(=O)[C@@](CC)(ONc1ccccc1C(F)(F)F)c1cccc2ccccc12	1.9	/	0.5	2.9	-0.4	0.664	1.2
CC(C(=O)c1ccc(Br)cc1)[n+]1cccc2ccccc21 (stereo not drawn)	-5.1	/	-0.3	-220.1	3.1	0.663	-2.8
Cc1cc(NC(=O)CSc2nnc(CNc3cccc(C(F)(F)F)c3)n2Cc2ccco2)no1	3.6	3.3%	0.4	-11.1	3.8	0.719	1.2
CCOC(=O)c1[nH]c2ccc(OC)cc2c1NC(C)=O	4.2	0.9%	1.0	1.5	0.8	0.694	-20.5
COc1cc(OC)c(C(=O)O/N=C(\N)c2ccccc2)cc1OC	-0.8	-2.2%	-0.3	5.4	-1.5	0.665	4.4
CN1C(=O)c2cccc(N(C)C)c2C1=O	3.2	5.0%	0.3	-4.6	-3.7	0.664	4.3
CCCc1c(C(=O)N/N=C(/C)c2ccncc2)nnn1-c1nonc1N	-0.9	-5.1%	0.3	-0.7	0.8	/	/
COc1cc(CN2CCN(CCOCCO)CC2)cc(OC)c1OC	-158.7	3.2%	0.9	2.5	0.7	0.72	3.2
CCc1ccc(NC(=O)Cn2cnc3c(=O)n(C)c(=O)n(C)c32)cc1	0.6	/	-0.5	0.4	0.0	0.688	2.6
COc1ccc(NC(=O)Nc2ncccc2C)cc1	1.2	9.3%	-1.7	-7.7	2.9	0.656	0.5
O=C1CCCN1CCCNCC(=O)N1c2ccccc2Sc2ccccc21	-3.9	-0.5%	0.7	-1.3	4.1	0.729	-0.7
CS(=O)(=O)c1cccc(C(=O)OCC(=O)NCc2cccs2)c1	7.1	5.7%	0.0	2.8	3.3	0.688	-1.2
Cc1c(C)n(C)c2ccc(C(=O)NCCCN3CCOCC3)cc12	-3.2	/	1.4	1.0	5.4	0.684	-2.3
Cc1ccc(C)c(NC(=O)C2CC(O)CN2C(=O)Oc2ccccc2)c1 (stereo not drawn)	-3.0	/	-1.2	-6.6	-1.0	0.661	4.1
O=C(Cc1ccccc1Cl)N/N=C/c1cccnc1	-7.6	-6.5%	0.9	3.7	0.4	/	/
CCOc1ccc(N(CC(=O)Nc2ccccc2C)S(=O)(=O)c2c(C)[nH]c(=O)[nH]c2=O)cc1	4.0	?	0.8	0.3	3.0	0.693	0.4
Nc1ccc(C(=O)c2ccc3c(c2)OCCO3)cc1N	1.4	1.8%	0.2	5.1	9.2	0.716	8.3
COc1ccc(NC(=S)N2N=CCC2c2ccccc2)cc1 (stereo not drawn)	4.1	23.7%	-5.2	-0.4	2.3	0.705	3.3
(list continues)
SMILES	LANA-H2A inh	Vif A3G	A1 inh	Beta2AR agonist	HNF4A DNA FP	E coli growth	UCH37 DUB inh
CC(C)(C)N1C(=O)[C@H]2[C@@H](c3ccc(Br)cc3)N3C(=O)N(c4ccc(Br)cc4)C(=O)[C@@]3(Cc3ccccc3)[C@H]2C1=O	0.1	/	0.7	-6.3	-3.2	/	2.0
COCCN(CC(=O)Nc1ccccc1C(F)(F)F)C(=O)c1ccc(-n2cccn2)cc1	2.3	4.7%	0.5	1.8	0.1	0.673	3.3
CCOc1ccc(NC(=O)CN(C)CC(=O)Nc2ccccc2C#N)cc1OCC	-4.5	3.2%	-0.1	1.7	3.2	0.761	2.1
Cc1ccc2nc(SCC(=O)Nc3cccnc3Cl)[nH]c2c1	0.3	-0.5%	1.3	-5.9	-2.9	0.631	2.1
CSc1nc(O)c(C(c2ccccc2Cl)c2c(O)nc(SC)[nH]c2=O)c(=O)[nH]1	1.5	/	-0.9	0.6	5.8	0.69	4.9
C=CCn1cc(C(=O)NCc2ccc(Cl)cc2)c(=O)c2cc(S(=O)(=O)N(CC)CC)ccc21	/	-2.7%	0.6	-5.9	-4.9	0.717	-0.1
Cc1ccc(N2CCN(c3ccc(C)cc3)C(CC(=O)O)C2=O)cc1 (stereo not drawn)	2.0	21.4%	0.5	-1.3	-1.5	0.698	4.1
CCCn1c(CC)nc([N+](=O)[O-])c1Sc1ccc(C)cc1	2.5	-2.4%	-0.4	-4.9	2.8	0.752	5.1
CC1=C(C(=O)c2ccccc2)C(c2ccc(N3CCOCC3)cc2)NC(=O)N1 (stereo not drawn)	-1.8	-4.2%	-0.3	5.7	16.9	0.712	7.0
O=c1nc2ccccc2c(NS(=O)(=O)c2ccccc2)n1-c1ccccc1	4.4	10.7%	-1.8	-3.6	3.1	0.729	-3.5
O=C(CN1C(=O)/C(=C\C=C\c2ccccc2)SC1=S)Nc1ccc(F)cc1	-3.7	-2.1%	0.0	-9.8	16.5	0.772	5.0
Cc1cccc(Oc2ncnc3onc(C)c23)c1C	4.4	8.2%	1.0	-1.9	-1.9	0.748	2.8
C=CCN1C(=O)C(CC(=O)Nc2ccc(OCC)cc2)N(Cc2ccccn2)C1=S (stereo not drawn)	1.0	-6.8%	0.9	12.7	-1.8	0.682	3.5
O=C(Cn1nc2sc3ccccc3n2c(=O)c1=O)c1cccs1	2.7	-17.3%	0.2	-6.3	-0.8	0.705	1.3
C/C(=C/CCC(C)[C@H]1CC[C@@]2(C)C3=C(CC[C@]12C)[C@@]1(C)CCC(=O)C(C)(C)[C@@H]1CC3)C(=O)O (stereo partly drawn)	5.5	/	0.0	4.2	-27.6	/	/
COc1ccc(NC(=O)c2ccc(OCC3CCCO3)cc2)cc1OC (stereo not drawn)	16.0	/	-0.5	-1.0	-0.9	0.688	2.5
COc1ccc(N2Cc3ccccc3C2=NC(=O)c2cncc(Br)c2)cc1	0.4	-4.5%	-1.8	-2.5	5.8	0.659	4.6
O=C(CN(CCc1ccccc1)C(=O)CNS(=O)(=O)c1ccc(F)cc1)NCC1CCCO1 (stereo not drawn)	3.5	8.7%&-3.0%	0.1	-6.8	1.2	0.71	-0.9
COc1ccc(CCN2CC(C(=O)OCC(=O)NCc3ccccc3Cl)CC2=O)cc1OC (stereo not drawn)	/	/	/	15.4	2.0	0.633	0.3
CCCC(=O)Nc1c(-c2ccccc2OC)c(=O)c2ccccc2n1C	0.5	0.4%	0.2	-4.2	1.3	0.708	-33.4
N#CCSc1ccccc1NC(=O)CN1C(=O)C(=O)N(Cc2ccccc2)C1=O	-1.9	-1.4%	0.0	-73.9	1.7	0.67	1.0
COc1ccc(C2C(C#N)=C(N)Oc3cc(O)ccc32)cc1C (stereo not drawn)	4.8	/	-1.0	2.9	21.9	0.667	2.7
Cc1ccc(CNC(=O)c2cnccn2)cc1	5.0	-3.7%	0.6	3.3	3.8	0.743	2.9

Assay outcomes: PubChem BioAssay, several laboratories

An unsorted share of the library. Share with any hit: about 2.1%.
